# D2 agonist: agonists of human D2 dopamine receptor (beta-arrestin). actives 0.084% (n = 360,000). DiscoveRx PathHunter D2 beta-arrestin, luminescence, 90 min; 100% = 57 uM dopamine signal. AID 624465. activation, % (no concentration beside the values). P14416; in the data active = activation above about 40%; inconclusive = about 15% to 40%; inactive = below about 15%; note: compound concentration not given in the record; the text of the record calls up to 30% inactive
# Target sequence (P14416 whole entry, looked up): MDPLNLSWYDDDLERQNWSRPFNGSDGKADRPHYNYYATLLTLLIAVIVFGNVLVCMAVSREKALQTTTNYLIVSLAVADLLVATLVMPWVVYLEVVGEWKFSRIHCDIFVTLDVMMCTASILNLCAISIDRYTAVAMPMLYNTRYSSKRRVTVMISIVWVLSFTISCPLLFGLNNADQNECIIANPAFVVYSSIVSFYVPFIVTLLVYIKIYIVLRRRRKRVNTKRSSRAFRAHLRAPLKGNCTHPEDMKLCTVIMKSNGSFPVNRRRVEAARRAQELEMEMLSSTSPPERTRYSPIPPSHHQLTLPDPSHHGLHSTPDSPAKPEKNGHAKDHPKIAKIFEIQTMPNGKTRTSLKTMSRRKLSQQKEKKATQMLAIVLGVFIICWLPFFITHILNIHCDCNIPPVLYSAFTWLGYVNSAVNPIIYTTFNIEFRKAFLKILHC
#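 DiscoveRx PathHunter D2 beta-arrestin cells (2,100/well) attached overnight, then compound-stimulated 90 min at 37 C in HBSS/10 mM HEPES/0.1% Tween-20 buffer; beta-galactosidase complementation read by luminescence after 1 h at ambient temperature. Dopamine 57 uM final (EC100) as control.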
# Six1-Eya2 inh: blocks human Six1 binding to Eya2. activity change, % (no concentration beside the values). Q15475+O00167. actives 0.56% (n = 360,000). AlphaScreen GST-Six1/His-Eya2 binding, biochemical; hits give low values; control for the full effect not named in the record; in the data active = activity change below about -65%; inconclusive = about -30% to -65%; inactive = above about -30%; note: % is set by controls: 0 for no effect and ±100 for the full control effect; compound concentration not given in the record
#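 Six1/Eya2 binding was read as AlphaScreen signal after compounds were pinned into GST-Six1 plus His-tagged Eya2 (5X stock 250/500 nM) in pH 8.0 Tris/NaCl/TCEP buffer, beads added, then incubated 1 h, 37 C, dark.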
# TRPML1 blocker: human mucolipin-1 channel inhibition | Q9GZU1 | AID 624415 | TRPML1-inducible cells, Ca2+ dye fluorescence, FDSS; hits give low values; inhibition of EC80 agonist-evoked calcium signal | actives 0.02% (n = 390,000) | activity change, negative = inhibition, % (concentration not given with the values); in the data active means activity change below about -50%; inconclusive means about -30% to -50%; inactive means above about -30%;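 note: stimulus is agonist 54-4 at its EC80 concentration; % is set by controls: 0 for no effect and ±100 for the full control effect; compound concentration not given in the record; the text of the record puts the active cut at -80%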
# Target sequence (Q9GZU1 whole entry, looked up): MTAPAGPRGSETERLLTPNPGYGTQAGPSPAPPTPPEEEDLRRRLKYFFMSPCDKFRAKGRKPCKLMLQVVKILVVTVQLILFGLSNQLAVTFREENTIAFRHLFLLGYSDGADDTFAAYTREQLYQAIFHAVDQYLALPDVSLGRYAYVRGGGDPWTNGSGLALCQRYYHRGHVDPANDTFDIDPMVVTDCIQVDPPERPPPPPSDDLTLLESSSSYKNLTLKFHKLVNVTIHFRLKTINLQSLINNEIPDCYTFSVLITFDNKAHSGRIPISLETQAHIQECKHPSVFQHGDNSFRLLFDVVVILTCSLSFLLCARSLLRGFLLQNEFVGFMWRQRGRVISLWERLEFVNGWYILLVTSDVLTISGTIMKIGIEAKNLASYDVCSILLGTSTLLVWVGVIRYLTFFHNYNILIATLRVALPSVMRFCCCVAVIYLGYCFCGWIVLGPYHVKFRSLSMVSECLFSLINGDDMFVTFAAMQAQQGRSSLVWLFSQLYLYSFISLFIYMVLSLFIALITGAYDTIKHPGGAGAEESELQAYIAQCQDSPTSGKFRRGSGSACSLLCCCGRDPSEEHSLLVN
#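 Tet-induced TRPML1-DL cells loaded with Ca8 no-wash calcium dye were read kinetically on FDSS. Compound addition was followed by EC80 agonist 54-4 (4 uM final); inhibition was read over 110 s.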
# TRPML1 ag: agonists of human TRPML1 channel | TRPML1-expressing cells, Ca2+ dye fluorescence, FDSS; host cell line not named in the record; reference of the full effect not given here | activation, % (test concentration not listed) | actives 0.12% (n = 410,000) | AID 624414; in the data active = activation above about 50%; inconclusive = about 30% to 50%; inactive = below about 30%; note: 0% is about no effect; the text of the record puts the active cut at 80%
#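 TRPML1-DL cells, Tet-induced overnight (~16 h, 37 degrees C), loaded 45-90 min at room temperature with Ca8 no-wash calcium dye plus quencher. FDSS fluorescence: 10 s baseline, compound pin-transfer, 110 s agonist read, then EC80 54-4 (4uM final) and 110 s antagonist read.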
# D2 PAM: potentiates the human D2 dopamine receptor allosterically; P14416; DiscoveRx D2 beta-arrestin cells, luminescence, 90 min; 100% = 57 uM dopamine signal; potentiation, % (test concentration not listed); actives 0.23% (n = 360,000); active = potentiation of 50% or more; inconclusive = 30% to 50%; inactive = 30% or less;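 note: compound concentration not given in the record; tested on top of an EC20 dose of dopamine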
#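 D2 cells co-treated with compound plus 50 nM dopamine (EC20) for 90 min at 37 deg C to detect potentiation. Beta-arrestin recruitment was read as enzyme-fragment luminescence after 1 h at ambient temperature. Full response was set by 57 uM dopamine.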
# PINK1 expr mod: PINK1 expression modulation; AID 624263; actives 0.2% (n = 410,000); Potency, µM (highest dose often 76.6 µM), for inactives: at the highest dose activation (PINK1 increase), actives largely listed as activators; PINK1 immunofluorescence, high-content cytometry, 24 h; active = well fitted activation curve with a large enough effect; inconclusive = small, poorly fitted or top-dose-only effect; inactive = flat fitted curve, though single readings scatter; cell line not stated here;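 note: potency is the fitted concentration of half-maximal effect; % of control where 0% means no effect; nearly all actives have a fitted effect of over 65% in size; a mitochondrial uncoupler was the plate control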
#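 Fluorescence from anti-PINK1 antibody, together with nuclear and cell stains, was scanned on a laser-scanning cytometer. Before staining, stable-line cells were incubated 24 hours with compounds at 5 concentrations; primary antibody 12 h at 10 degrees C.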
# An asterisk follows results filed as active; ? = inconclusive; . = not tested or not shown; [ ] = remark or other dose.
SMILES,D2 agonist,Six1-Eya2 inh,TRPML1 blocker,TRPML1 ag,D2 PAM,PINK1 expr mod
O=C(NCc1ccccc1Cl)C1CCCN1S(=O)(=O)c1ccc(F)cc1 (stereo not given),1.8,-4.7,5.0,-0.3,-5.6,2.4%
Nc1cc(=O)[nH]c(SCC(=O)NCCC2=CCCCC2)n1,0.0,-0.2,20.3,-0.3,-4.4,0.0%
C=CCCCOc1ccc(C(=O)O)cc1,1.3,-0.3,-14.2,-0.3,-3.3,?
Cc1ccc(NC(=O)[C@H](C)NC(=O)C2CCN(C(=O)[C@@H](N)CC(C)C)CC2)cc1,-0.9,-0.8,-6.0,-0.7,1.1,0.7%
C/C=C1\NC(=O)[C@H](CC(N)=O)N(C)C(=O)C([C@@H](C)O)NC(=O)C(CCCc2ccc(OC)cc2)NC(=O)[C@H](C(C)C)NC(=O)/C(=C\C)NC(=O)[C@H](O)[C@@H](C[C@@H](O)CCCCCCC)NC(=O)[C@H](C)NC(=O)CN(C)C(=O)[C@H](CCC(N)=O)NC1=O (stereo not given in full),7.6,1.3,34.6,0.9,12.6,0.2%
Cc1nc(N2CCN(C)CC2)c2c3c(sc2n1)CCCC3,-7.5,-2.3,9.8,-0.2,-4.1,0.2%
CCOC(=O)c1ccc(NC(=O)c2cc3c(=O)n(C)c4ccccc4c3n2C)cc1,.,.,32.4,-0.8,.,0.3%
Cn1c(CCC(N)=O)nnc1SCC(=O)Nc1cc(S(=O)(=O)N2CCCC2)ccc1Cl,-2.9,3.0,10.3,-0.3,-13.8,3.3%
CCc1nnc(NC(=O)CSc2nc(-c3ccccc3)cc(-c3ccc(F)cc3)c2C#N)s1,-1.3,-1.2,4.1,0.8,18.8,39.7%[38.3 µM]
COc1ccc(Br)cc1/C=N/n1c(C)nnc1C,2.8,12.1,3.2,-0.5,10.6,2.7%
O=C1NCC(Nc2ccccc2)C(=O)N1 (stereo not given),-1.7,4.6,12.0,0.4,-3.4,0.5%
O=C(N/C(=C/c1cccs1)C(=O)N1CCOCC1)c1ccco1,2.7,10.8,17.6,0.1,-10.9,-0.5%
CC(=O)Cn1c(=O)oc2ccccc21,-1.6,-0.9,5.2,0.5,0.5,-1.6%
CC1CN(S(=O)(=O)c2cccc(C(F)(F)F)c2)CN1C(=O)N1CCOCC1 (stereo not given),-0.1,-0.3,9.3,-0.3,2.9,0.9%
O=C(c1cccc(F)c1)N1CCCC(C(=O)N2CCCC2)C1 (stereo not given),-1.9,5.9,25.9,0.7,-24.5,1.6%

# Of the compounds above, 2 have two or more sulfur atoms:
SMILES,D2 agonist,Six1-Eya2 inh,TRPML1 blocker,TRPML1 ag,D2 PAM,PINK1 expr mod
Cn1c(CCC(N)=O)nnc1SCC(=O)Nc1cc(S(=O)(=O)N2CCCC2)ccc1Cl,-2.9,3.0,10.3,-0.3,-13.8,3.3%
CCc1nnc(NC(=O)CSc2nc(-c3ccccc3)cc(-c3ccc(F)cc3)c2C#N)s1,-1.3,-1.2,4.1,0.8,18.8,39.7%[38.3 µM]

# Molecules from the list above that contain a Cl atom (2):
SMILES,D2 agonist,Six1-Eya2 inh,TRPML1 blocker,TRPML1 ag,D2 PAM,PINK1 expr mod
O=C(NCc1ccccc1Cl)C1CCCN1S(=O)(=O)c1ccc(F)cc1 (stereo not given),1.8,-4.7,5.0,-0.3,-5.6,2.4%
Cn1c(CCC(N)=O)nnc1SCC(=O)Nc1cc(S(=O)(=O)N2CCCC2)ccc1Cl,-2.9,3.0,10.3,-0.3,-13.8,3.3%

# The listing continues.
SMILES,D2 agonist,Six1-Eya2 inh,TRPML1 blocker,TRPML1 ag,D2 PAM,PINK1 expr mod
COc1ccccc1Cn1cc(C(=O)c2ccc(F)cc2)c(=O)c2cc3c(cc21)OCO3,.,.,13.5,0.7,.,-0.5%
Cc1ccc(S(=O)(=O)NC(C)CCc2ccccc2)cc1C(N)=O (stereo not given),-3.0,2.0,-1.5,0.2,-15.1,0.7%
COc1ccc(CNC(=O)COC(=O)c2cccnc2Nc2cccc(C(F)(F)F)c2)cc1,-2.0,0.8,3.0,4.6,-3.3,7.6%
CCOC(=O)N1CCN(c2cc(=O)n(-c3cccc(C)c3)c(=O)[nH]2)CC1,-2.6,1.1,13.7,-0.1,-8.2,0.4%
O=C1ON=C(c2cccc([N+](=O)[O-])c2)/C1=C/c1ccc(O)cc1,-4.8,2.2,4.7,-0.4,-7.1,-1.5%
Cc1ccc(Cl)cc1NC(=O)C1CCN(C(=O)c2cnn(-c3ccccc3)c2-n2cccc2)CC1,.,.,-4.7,0.5,.,2.4%
COc1ccccc1-c1coc2cc(OC(=O)/C=C/c3ccccc3)ccc2c1=O,-4.6,-17.0,-5.2,-0.7,-8.0,16.0%
CC(C)CCNC1=NCCCCC1,-3.4,2.2,5.2,0.0,1.6,-6.4%[38.3 µM]
CCOc1ccc(Br)cc1S(=O)(=O)Nc1cccc(-c2ccc(OC)nn2)c1,.,.,-9.0,-0.5,.,13.2%
CCc1ccccc1-n1cnc2cc(C(=O)O)ccc21,-2.0,3.9,-7.3,-0.5,-1.7,-0.2%
O=C(COC(=O)c1ccc(NS(=O)(=O)c2ccc(Br)s2)cc1)NC1CCCC1,-1.3,9.4,-2.4,0.2,2.5,-0.9%
COc1ccc(Cn2c(C)cc3c(c2=O)C(c2cccs2)C(C#N)=C(N)O3)cc1OC (stereo not given),-1.0,1.3,9.5,-0.3,3.5,24.6%[38.3 µM]
Cc1ccc(NC(/C=C/N(C)C)=C/C(=O)C(F)(F)F)c(C)c1,2.5,-6.5,-10.9,-0.1,-12.5,?
Fc1ccc(CN2CCCN(C(=S)Nc3ccc(F)cc3)CC2)cc1,-0.1,-4.1,16.7,0.3,-20.7,1.0%
Cc1ccc(NC(=O)CSc2nnc(-c3ccco3)o2)c(C)c1,2.9,7.5,-9.0,1.0,1.5,-1.6%
CC(=O)c1cccc(NC(=O)CC2CCCC2)c1,1.8,-1.5,-6.3,2.2,-2.6,0.2%
Cc1ccc(S(=O)(=O)N2CCN(C(=O)C(F)(F)F)C2c2ccc(N(C)C)cc2)cc1 (stereo not given),-1.6,25.2,-15.6,-0.2,4.9,0.1%
O/C(=C\c1ccc2ccccc2n1)c1ccc(O)cc1O,-12.0,-14.6,-6.0,9.0,-8.9,29.7%
O=C(Nc1nc(-c2ccc(S(=O)(=O)N3CCCCCC3)cc2)cs1)c1ccccc1,-3.3,-24.5,-8.9,0.4,-8.3,13.6%
CCOc1ccc(NC(=O)c2ccc(Br)o2)c([N+](=O)[O-])c1,1.6,-1.3,-19.9,0.5,-10.7,?
COc1ccc(-c2nc(CS(=O)CC(=O)NCc3ccc(C)cc3)c(C)o2)cc1OC (stereo not given),-1.9,-8.3,2.5,-1.0,-11.2,1.9%
COc1ccc(CCNC(=O)CSCc2ccc([N+](=O)[O-])cc2)cc1OC,-0.5,-4.8,72.1,0.7,-9.7,-1.5%
O=C(CCc1nnc2ccc(N3CCCC3)nn12)Nc1cc(F)ccc1F,-4.9,7.7,-5.7,1.3,-8.6,0.0%
CCN(C(=O)CSc1nc2scc(-c3ccccc3)c2c(=O)n1C)C1CCS(=O)(=O)C1 (stereo not given),-2.5,0.8,-3.4,-0.3,-2.5,12.1%
CCOC(=O)c1c(NC(=O)CSc2nnc(Cc3ccccc3)o2)sc(C)c1C,-5.6,-13.4,2.3,-0.2,9.4,-2.2%
CCOCCc1nnc(NC(=O)C2CC(=O)N(c3ccc(OCC)cc3)C2)s1 (stereo not given),-1.4,4.3,-6.6,-0.3,-4.4,-0.6%
O=C(c1ccc(S(=O)(=O)Nc2ccccc2F)cc1)N1CCN(c2ccccc2O)CC1,-4.6,-0.8,8.1,-0.8,-12.0,2.8%
Cn1cc(S(=O)(=O)CC(=O)Nc2ccc(Br)cc2)c2ccccc21,-2.5,-4.8,-13.0,-1.1,-9.9,1.2%
CCOc1ccc(NC(=O)c2ccc(CSc3nnnn3C)cc2)cc1,-0.6,-7.6,9.4,-0.3,-3.2,7.8%
CCN(CC(=O)NCc1cccs1)CC(=O)Nc1c(Cl)ccc(C)c1Cl,1.0,8.7,3.1,-0.4,0.4,1.6%
CCCn1cc(S(=O)(=O)c2ccc(C)cc2)c(=O)c2cc(OCC)ccc21,-0.4,-1.1,-4.2,0.1,-6.1,-0.6%
COC(=O)C1CCN(C(c2ccccc2)c2sc3nc(-c4ccco4)nn3c2O)CC1 (stereo not given),.,.,0.3,0.4,.,-1.3%
Cn1c(SCc2ccc(C#N)cc2Cl)nc2ccccc21,2.2,1.9,-0.8,2.3,-8.1,-6.6%[38.3 µM]
COc1ccccc1NC(=O)Cc1nnc(SCC(=O)NC2CCCCC2C)n1C (stereo not given),-0.3,3.5,-7.6,0.1,-5.5,2.0%
CC(=C/c1ccccc1)/C=N/n1c(-c2ccco2)n[nH]c1=S,1.6,-18.7,4.9,0.8,-7.9,.
CCOc1ccc(CNC(=O)CCn2cccn2)cc1OC,.,.,14.5,0.7,.,-1.3%
COc1ccc(C2CC(c3cccs3)=NN2C(=O)CCl)cc1OC (stereo not given),-4.2,-1.8,-5.1,0.7,0.4,-1.7%
Cc1ccc(C(=O)OCC(=O)Nc2cccc(S(=O)(=O)N3CCOCC3)c2)o1,0.9,0.0,1.9,0.2,-3.4,1.2%
CC(=O)c1cccc(NC(=O)C2CCCN(S(=O)(=O)c3cccc4nonc34)C2)c1 (stereo not given),-0.4,-1.9,-14.2,0.6,-4.4,?
CC(=O)c1cccc(NC(=O)N2CCCc3ccccc32)c1,-2.6,-0.2,4.8,0.7,6.1,-2.0%[38.3 µM]
Cc1cccc(NC(=S)N(CCCN2CCOCC2)C(C)c2cc3ccccc3o2)c1C (stereo not given),0.7,-11.3,39.0,1.3,-18.8,-0.4%
COC(=O)CCNc1ccc2c(c1)OCCO2,-3.3,-13.4,-15.4,-0.2,-9.3,0.8%
S=c1[nH]ncn1NCc1cccc(Br)c1,4.1,3.9,-20.0,0.3,-18.8,2.5%
COC(=O)CCC(=O)NC(=S)Nc1ccc(S(=O)(=O)Nc2cc(C)on2)cc1,-2.9,5.7,-13.6,-0.5,2.5,-0.8%
O=C(c1ccc(O)c(Cl)c1)N1CCN(S(=O)(=O)c2ccccc2)CC1,2.9,-21.2,0.7,1.3,-13.9,2.3%
O=C1NC2(O)C(=O)c3ccccc3C2(O)N1 (stereo not given),-6.5,5.7,8.1,-0.9,-8.4,1.9%
COC(=O)c1c(N)[nH]c(C(=O)c2ccccc2)c1-c1ccc(Cl)cc1,.,-5.2,.,0.5,.,7.9%
CCCCC(=O)O,5.0,6.6,0.6,0.0,-2.8,1.3%
Cc1ccc(NC(=O)C2CCCN2S(=O)(=O)c2ccc3c(c2)CCC(=O)N3)cc1Cl (stereo not given),-1.6,2.1,-6.7,1.8,-0.8,-0.1%
CCN(CC(=O)Nc1ccc(NC(C)=O)cc1)C(=O)C1CCN(C(=O)c2ccccc2C)CC1,-5.2,-3.3,-1.8,0.5,-4.6,13.4%
Cc1ccc2nc3[nH]c(=O)[nH]c(=O)c3c(N)c2c1,-1.3,?,4.4,0.0,2.1,-2.9%

# Bioassay records deposited in PubChem by National Center for Advancing Translational Sciences (NCATS).
